NPYLR7 ag = activates Aedes aegypti NPYLR7 receptor | activation, % at 10 µM | 270,000 tested, 0.15% active | HEK293T NPYLR7/Galpha15, GCaMP6s calcium fluorescence; in the data active = activation above about 40%;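 also: 0% = vehicle and 100% = reference agonist at the receptor; some compounds past the cut are filed as inactive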
NPYLR7 ag max-min = also measured in NPYLR7 ag; calls as there; activation, %; measured here: Max-Min RFU normalised activation; some inactives read as strong as hits;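 span of the calcium signal over five minutes; 0% = vehicle and 100% = native peptide agonist; compound fluorescence can raise it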
Active calls of the source: *; & = joins results of further samples. These rows are one share of the data (hit frequency here may not be typical).

SMILES	NPYLR7 ag	NPYLR7 ag max-min
N#Cc1c(SCc2ccccc2Cl)sc2c(=O)[nH]c(=O)[nH]c12	-7	-12
Cc1cnc(N2CCCC(c3ccccc3)C2)nc1-c1ncnn1C (stereo not drawn)	10	10
C[C@@H]1[C@H]2C[C@@H](C[C@H]1NC(=O)c1ccc(Nc3cccc(C(F)(F)F)c3)nc1)C2(C)C	-9	-17
Cc1ccc(C2CC(C(F)(F)F)n3ncc(C(=O)Nc4ccc(C(C)O)cc4)c3N2)cc1 (stereo not drawn)	1	-7
COc1ccc(-c2nc(CN3CCCCC3c3cccnc3)c(C)o2)c(C)c1C (stereo not drawn)	-9	-12
CCNC(=S)NN=Cc1ccc(C)s1	3	8
COc1cccc(CN2CCCN(c3nc(Cc4ccccc4)nc4c3c(C)nn4-c3ccc(F)cc3)CC2)c1	1	7
CCOc1ccccc1/C=C1/SC(=S)N(CC(=O)O)C1=O	-7	-11
Cc1cc(N2CC34C=CC(O3)C(C(=O)NOCc3ccccc3)C4C2=O)no1 (stereo not drawn)	-1	16
Cc1cc(C(=O)N2CCC2(C)C(=O)NS(=O)(=O)c2cccc(Cl)c2)nn1C (stereo not drawn)	3	2
Cc1ccc(Nc2nc3nonc3nc2N2CCOCC2)cc1C	-7	-12
C=CCN(CC=C)S(=O)(=O)c1ccc(C(=O)Nc2nnc(-c3cc(Cl)ccc3Cl)o2)cc1	10	4
Cc1ccccc1Cc1nnc(CN(CC(C)O)c2ccccc2)o1 (stereo not drawn)	0	-1
C=CC(C)(O)CN1CCc2nc(Cc3cccc(OC)c3)[nH]c(=O)c2C1 (stereo not drawn)	-1	8
CCc1nc2ccc(C(=O)N3CCN(C(=O)c4ccco4)CC3)cn2c1N(C)Cc1ccc(Cl)cc1	5	19
C1CNCCN1	-8	-19
CN1CC2(CCCN(C(=O)Cn3ccnc3)CC2)OC1=O (stereo not drawn)	2	-3
O=c1oc2ccc3ccccc3c2cc1-c1nnc(Nc2cccc(F)c2)s1	-5	-7
CC(C)NC(=O)N(Cc1cccc(Cl)c1)CC1CC(c2ccc(N(C)C)cc2)=NO1 (stereo not drawn)	21	31
CCN(CC)c1onc(-c2ccccc2)c1CN(CCCOC)C(=O)c1ccc(OC)cc1	4	6

The last five entries of the section above open the next one.
SMILES	NPYLR7 ag	NPYLR7 ag max-min
C1CNCCN1	-8	-19
CN1CC2(CCCN(C(=O)Cn3ccnc3)CC2)OC1=O (stereo not drawn)	2	-3
O=c1oc2ccc3ccccc3c2cc1-c1nnc(Nc2cccc(F)c2)s1	-5	-7
CC(C)NC(=O)N(Cc1cccc(Cl)c1)CC1CC(c2ccc(N(C)C)cc2)=NO1 (stereo not drawn)	21	31
CCN(CC)c1onc(-c2ccccc2)c1CN(CCCOC)C(=O)c1ccc(OC)cc1	4	6
CCc1cccc(NC(=O)N(Cc2cccc(OS(=O)(=O)c3cccc(C(F)(F)F)c3)c2)Cc2ccco2)c1	-3	5
Cc1nc2sc3c(c2c2ncnn12)CCCC3	-3	-4
CN(C(=O)c1cc2cc(F)ccc2o1)C1CCS(=O)CC1 (stereo not drawn)	-3	19
N#Cc1ccc(NS(=O)(=O)/C=C/c2ccc(Cl)cc2)nc1	-14	-19
CC(C)NC(=O)c1cc(=O)c(OCc2ccccc2)cn1C	6	3
O=C(Cc1cc(-c2ccccc2)on1)N1CCOCC1	7	9
CC1C(=O)N(C(=O)c2ccco2)C(C)C(=O)N1C(=O)c1ccco1 (stereo not drawn)	0	-1
CC(C)N(Cc1cccnc1)C(=O)c1ccc(S(=O)(=O)N2CCCC2)o1	14	8
CCCCN(C(=O)c1ccc(-c2ccccc2Cl)o1)C1CCS(=O)(=O)C1 (stereo not drawn)	0	5
Cc1c(C(=O)NCCc2cccc(Cl)c2)cnc2c(-c3c(F)cccc3Cl)cnn12	9	-1
COc1ccc(OCCCOc2cccc(Cl)c2Cl)cc1	-7	9
CN1CCN(CCc2nc3cc(NC(=O)c4ccco4)ccc3n2C)CC1	0	21
COc1ccc(N2CCCn3c2nc2c3c(=O)n(CC(C)C)c(=O)n2C)c(OC)c1	-3	-7
CCCCc1nc(C(N)=O)c2[nH]c(=O)n(-c3ccccc3F)c2n1	14	5
CCn1c(C)ccc(C(=O)N(C)CCSc2ccc(C)cc2)c1=O	25	12
CC1CN(C(=O)Cc2cc(-c3ccc(F)cc3)on2)CC(C)O1 (stereo not drawn)	7	8
COCCNc1oc2c(c1-c1ccc(Cl)cc1)c(=O)oc1ccccc12	-7	-8
CN(Cc1csc(-c2ccccc2)n1)C(=O)CC1COCCN1 (stereo not drawn)	-3	-3
FC(F)(F)c1cccc(-n2c(C3C4CCCCC43)n[nH]c2=S)c1 (stereo not drawn)	-7	-11
CCOC(=O)C(=O)Nc1ccc(-c2cccc(-c3ccc4c(c3)OCCO4)n2)cc1	-1	1

The list goes on (four carried over from the part before).
SMILES	NPYLR7 ag	NPYLR7 ag max-min
COCCNc1oc2c(c1-c1ccc(Cl)cc1)c(=O)oc1ccccc12	-7	-8
CN(Cc1csc(-c2ccccc2)n1)C(=O)CC1COCCN1 (stereo not drawn)	-3	-3
FC(F)(F)c1cccc(-n2c(C3C4CCCCC43)n[nH]c2=S)c1 (stereo not drawn)	-7	-11
CCOC(=O)C(=O)Nc1ccc(-c2cccc(-c3ccc4c(c3)OCCO4)n2)cc1	-1	1
O=C(NCC1CCCN(C(=O)c2cnsn2)C1)c1ccc(-c2ccccc2)cc1 (stereo not drawn)	-4	-6
COc1ccc(CCOc2nc(-c3ccc(F)cc3)n(-c3ccc(NC(=O)c4cccc(F)c4)cc3)n2)cc1	-5	-16
COC(C)c1noc(-c2cc(C3CC3)nc3onc(C)c23)n1 (stereo not drawn)	2	0
CCC(=O)Nc1ccc(N(C)C)c(CN(CC2CC2)C(=O)c2ccc(OC)cc2)c1	8	15
Cc1ccccc1C1(O)CCN(Cc2ncc[nH]2)C1 (stereo not drawn)	9	8
O=C(CSc1cccs1)NS(=O)(=O)/C=C/c1ccccc1	12	6
CCCC(=O)Nc1sc(SCC(N)=O)nc1-c1ccccc1	-8	-12
CNC(=O)c1ccc(NC(=O)N2CCC(c3ccccc3)C2)cc1 (stereo not drawn)	13	3
Cc1ccnc(Nc2ccc(N3CCN(C(=O)C4CCCC4)CC3)nn2)c1	7	2
CC(C)Cc1nc(CN(C)C(=O)c2cnnn2-c2ccccc2)no1	-2	-1
CCCCCN(Cc1nc(C(=O)OC)cs1)C(=O)Nc1cc(C(F)(F)F)cc(C(F)(F)F)c1	12	20
Cc1nc(=O)[nH]c(C)c1CCC(=O)NC(C)C(=O)N(C)C (stereo not drawn)	6	2
Cc1ccc(S(=O)(=O)NCCc2nnc3ccc(SCc4cc(C)ccc4C)nn23)cc1	13	2
COCCN(Cc1c(-c2ccccc2)noc1N1CCOCC1)C(C)=O	0	3
CC(C)c1nnc(NC(=O)CSc2nnc(NC(=O)c3c(F)cccc3F)s2)s1	0	2
CCCCCOc1ccc(C(=O)Nc2nnc(SCC)s2)cc1	-5	-11
CC(=O)c1ccc(S(=O)(=O)Nc2ccc(C(=O)N3CCCC3)cc2)cc1	0	2
O=C(NC1CC1)c1ccccc1N1CCC(NS(=O)(=O)c2ccc(Cl)cc2)CC1	-1	4
CCCCOc1ccc(S(=O)(=O)Nc2ccccc2C(=O)NCc2ccc3c(c2)OCO3)cc1	3	-2
CN(Cc1cc2n(n1)CCNC2)Cc1n[nH]c2c1CCCCC2	18	16
CN(C)c1nc2c(c(=O)[nH]1)CCN(S(=O)(=O)N1CCCCCC1)C2	1	-1
CN1CCN(C(=O)C2(NC(=O)Cc3ccc(Cl)c(Cl)c3)CCCC2)CC1	0	11
Cc1[nH]n(-c2nc(-c3ccc(Br)cc3)cs2)c(=O)c1N=Nc1ccccc1	3	-1
CCOC(=O)C1(C)CCN1C(=O)c1cc2ccccc2s1 (stereo not drawn)	-5	-10
CC(=O)Nc1ccc(CNC(=O)CNCc2ccnc(C)c2)cc1	10	3
CCOC(=O)N1CCN(C(=O)c2ccc(N3CCC(NC4Cc5ccccc5C4)CC3)cc2)CC1	-4	-12
O=C(NC1CC1)C(Sc1n[nH]c(CC2CCCC2)n1)c1ccc(F)cc1 (stereo not drawn)	0	14
COc1ccccc1C1Nc2cc(Cl)c(S(N)(=O)=O)cc2S(=O)(=O)N1 (stereo not drawn)	9	6
Cc1ccc(-c2c[nH]n3c(=O)cc(C)nc23)cc1	0	6
O=C1CSC(c2ccc(Br)cc2)N1c1ccc(O)cc1 (stereo not drawn)	12	11
COC(=O)c1sccc1S(=O)(=O)N1CCN(CC(OCc2cccc(C)c2)c2ccc(Cl)cc2)CC1 (stereo not drawn)	31	22
CCNC(=S)N(Cc1c(-c2ccccc2)noc1N(CC)CC)CC1CC1	12	11
Nc1ncnc2c1CCC2	-3	-5
COc1ccc(CCNC(=O)c2ccccc2N2CCC(NC(=O)c3ccc(C(F)(F)F)cc3)CC2)cc1	19	21
COc1ccc(CN2CC(C(=O)N3CCOCC3(C)C)CC2=O)cc1 (stereo not drawn)	-3	-10
COC(=O)c1cc2n(n1)CCCN(C(=O)c1sccc1C)C2	13	8
CCCCCCNC(=O)c1cc(-c2cccc(OC)c2)n2nc(-c3ccccc3)cc2n1	23	24
C=c1c(C#N)c2[nH]c(N)c(C#N)c(C)c-2/c1=C\c1ccc(-c2ccc(Cl)cc2)o1	9	6
FC(F)(F)c1ccc(Cl)c(NC2=NCCC2)c1	7	4
Cc1cccc2c(N=NC(=O)COc3ccc4ccccc4c3)c(O)[nH]c12	-6	-10
CC(C)c1ccc(NC2CCCN(C(=O)CCc3nc(-c4ccccc4)no3)C2)cc1 (stereo not drawn)	4&0	0&-1
CC(C)c1csc(CN2CCCC(N(C)Cc3ccccc3)C2)n1 (stereo not drawn)	1	-4
CC(C)C1=CC23CCC4C(C)(C(=O)O)CCCC4(C)C2CC1C1C(=O)N(c2ccc(O)cc2)C(=O)C13 (stereo not drawn)	-8	-12
NC(=O)[C@H](Cc1ccc(O)cc1)NC(=O)C1=C[C@@H](Oc2ccc3c(c2)OCO3)[C@H](O)[C@H](O)C1	13	6
CC(C)(C)c1ccc(CC(=O)N2CCC2(C)C(=O)NCC(F)(F)F)cc1 (stereo not drawn)	8	4
Cc1cccc(S(=O)(=O)Nc2cc(C(N)=O)ccc2N(C)C)c1	-2	-9
O=C(c1ccco1)N1CCN(CC(OCc2c(F)cccc2F)c2ccc(Cl)cc2)CC1 (stereo not drawn)	-5	-7
CCCN(CCC(=O)NCCOC)c1nc(-c2cccc(Br)c2)nc2ccccc12	20	34
Cc1ccc(C(=O)N2CCC(n3c(C)nc4ccc(F)cc43)CC2)s1	20	18
CC(C)CN(CC(=O)OCc1ccccc1)CC(=O)N(Cc1ccc(F)cc1)Cc1ccco1	2	2
New compounds follow.
SMILES	NPYLR7 ag	NPYLR7 ag max-min
COC(=O)C1(C(=O)NC(C)C(=O)N(C)C)CC1 (stereo not drawn)	2	-21
Cc1cc(C)c2[nH]c3nc(SC(C)C)nnc3c2c1	6	1
COc1cc2c(cc1-c1nccn1Cc1noc(C(C)C)n1)OCO2	4	2
Cc1nn(C)c(C)c1S(=O)(=O)N1CC2ON=C(c3cccnc3)C2C1 (stereo not drawn)	5	6
COCCn1cc(NC(=O)Nc2c(C)cc(C)cc2C)c2ccccc21	14	6
COc1ccc(CC(=O)N2CCN(c3nccc(-c4ccc5c(c4)OCO5)n3)CC2)cc1	22	28
COc1cccc(C(=O)N2CCC2(C)C(=O)NC(C)C)c1 (stereo not drawn)	-5	-5
O=C(CSc1nc2c(-c3ccccc3)c[nH]c2c(=O)n1C1CC1)Nc1ccc2c(c1)OCO2	-1	-3
CCC(CC)n1ccc(CO)n1	7	5
COCCn1c(=NC(=O)c2cc(Cl)sc2Cl)sc2cc(S(N)(=O)=O)ccc21	5	2

By substructure, the compounds so far with a COOH group (two)
SMILES	NPYLR7 ag	NPYLR7 ag max-min
CCOc1ccccc1/C=C1/SC(=S)N(CC(=O)O)C1=O	-7	-11
CC(C)C1=CC23CCC4C(C)(C(=O)O)CCCC4(C)C2CC1C1C(=O)N(c2ccc(O)cc2)C(=O)C13 (stereo not drawn)	-8	-12

Further results follow:
SMILES	NPYLR7 ag	NPYLR7 ag max-min
O=C(COc1coc(CN2CCc3ccccc32)cc1=O)Nc1ccccc1F	-1	27
COc1ccc(OC)c(-c2cccc(-c3cccc(NC(=O)c4oc5ccccc5c4C)c3)n2)c1	-5	-1
Cc1cc(CNC(=O)c2cccc(OC3CCN(C(=O)C4CC4)CC3)c2)on1	9	4
Cc1c(-c2nc(-c3ccccc3)c(-c3ccccc3)[nH]2)c(=O)n(-c2ccccc2)n1C	11	4
CC1CCN(S(=O)(=O)c2ccc(C(=O)NCCCc3nc4ccccc4[nH]3)cc2)CC1	1	4
CSc1ccc(CC(=O)NCc2cccnc2N2CCOCC2)cc1	13	9
CCC(c1ccnn1C)n1cc2ncccc2c1O (stereo not drawn)	2	-2
CN1CCN(C(=O)c2nn3c(C(F)(F)F)cc(-c4ccccc4)nc3c2Cl)CC1	9	6

Screening data from PubChem.
